Screening data: PubChem, several laboratories
HNF4A DNA FP: change in binding of human HNF4 alpha to DNA; P41235; HNF4a-FITC DNA binding, fluorescence polarization, 1 h; activity change, % at 10 µM; hit rate 0.3% among 360,000; AID 1224865; in the data active = activity change above about 30%, passing the limit was not always enough;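 also: controls were the assay level and a saturating level of protein; the project sought stronger binding though the title names inhibitors; some compounds called inactive have numbers as strong as hits; positive values seem to mean higher polarization but the record does not say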
Target sequence (P41235 whole entry, looked up): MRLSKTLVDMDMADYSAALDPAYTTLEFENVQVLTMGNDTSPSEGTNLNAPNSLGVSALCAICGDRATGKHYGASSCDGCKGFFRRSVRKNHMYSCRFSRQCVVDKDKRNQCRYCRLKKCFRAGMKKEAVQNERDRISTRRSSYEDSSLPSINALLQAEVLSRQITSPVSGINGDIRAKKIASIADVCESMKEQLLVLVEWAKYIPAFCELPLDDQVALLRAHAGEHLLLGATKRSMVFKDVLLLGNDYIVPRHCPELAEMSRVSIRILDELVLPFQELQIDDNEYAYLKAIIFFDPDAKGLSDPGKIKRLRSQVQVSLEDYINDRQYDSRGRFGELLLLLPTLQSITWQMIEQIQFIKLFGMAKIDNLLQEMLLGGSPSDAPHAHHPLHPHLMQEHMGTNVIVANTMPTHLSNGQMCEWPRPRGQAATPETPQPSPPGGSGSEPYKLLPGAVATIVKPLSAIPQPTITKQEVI
A1 inh: inhibitors of the anti-apoptotic protein A1, read as caspase activation; MEF A1-2A-BIM cells, Caspase-Glo 3/7 luminescence, 3 h; percent of clofoctol response, vehicle zero; caspase activation, % (concentration not given with the values); hit rate 0.066% among 330,000; AID 2462;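 active = over half of replicate activation scores above 10%, or exactly half above 10 with the replicate mean above 10; inconclusive = replicate mean below 10 yet half the replicates above 10; inactive = over half of replicates below 10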;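 also: wells of about 30 µL received 50 nL stock; many hits fall short of the cut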
UCH37 inh: inhibitors of human deubiquitinating enzyme UCH37. Q9Y5K5. purified proteasome/UCH37, Ub-AMC cleavage fluorescence. inhibition, % (concentration not given with the values). hit rate 0.33% among 330,000. AID 588478;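 active = mean of two replicates above 20%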;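 also: 0% = compound-free wells with enzyme and 100% = wells lacking proteasome; stock transfer was 100 nL into about 20 µL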
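Assay system: Proteasome-bound UCH37. Buffer or medium: pH 7.4 Tris-HCl (50 mM) with ovalbumin, ATP-MgCl2, DTT. Incubation: 30 min preincubation with enzyme, 25 min cleavage at room temperature. Measured by: fluorescence, ex 355 nm, em 460 nm. Read-out basis: percent inhibition. Control set: wells without proteasome as full block, compound-free enzyme plus substrate as uninhibited.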
Ecoli growth: blocks Escherichia coli growth; OD600 absorbance (concentration not given with the values); hit rate 0.21% among 330,000; OD600, 23 h; stronger effect = lower value; AID 1053175;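 active = OD600 absorbance below the run mean of sample wells minus 3.6 SD, in any replicate, cut at about 0.56 in these data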;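 also: stock transfer was 300 nL into about 60 µL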
Vif TR-FRET: HIV-1 Vif–A3G interaction blockers – biochemical, TR-FRET, GST-Vif 1-94, biotin-A3G peptide, dose response retest, primary screen (AID 1117319) | TR-FRET GST-Vif / biotin-A3G peptide binding; higher % means a stronger effect; test concentration not given here; strong numbers were not always called active | inhibition, %; hits with a dose series show IC50 in µM | hit rate 0.57% among 260,000;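 active = above the screen mean plus three standard deviations and confirmed in dose response; inconclusive = results disagree or hit not tested in dose response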;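 also: Vif residues 1-94 fused to GST binding biotinylated APOBEC3G peptide 110-148; 0% = full assay without inhibitor and 100% = GST in place of GST-Vif; retest series ran down from 100 µM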
LANA-H2B inh: blocks KSHV LANA binding to histone H2A/H2B. Q9QR71. cell-free LANA-H2A/H2B peptide, fluorescence polarization. inhibition, % (test concentration not listed). hit rate 0.6% among 320,000; in the data active = inhibition mostly above about 10%, no sharp cut-off; inactive = mostly below about 6.7%;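 also: stock transfer was 7.5 nL into about 10 µL; 0% = median of vehicle wells and 100% = median of positive control wells; one replicate is shown; the record names a cut of 25% in any replicate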
B2AR ag: agonists of human beta-2 adrenergic receptor inducing internalization. response, % (no concentration beside the values). hit rate 0.43% among 340,000. AID 504454. Am2.2-beta2AR cells, FAP receptor internalization, flow cytometry; reference of the scale not given here. P07550;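 active = response above a set limit, near 3 SD of response in nonfluorescent compounds, cut at about 42% in these data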;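 also: stock transfer was 100 nL into about 11 µL; a reference agonist was the positive control; negative values mostly stem from fluorescent compounds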
Target sequence (P07550 whole entry, looked up): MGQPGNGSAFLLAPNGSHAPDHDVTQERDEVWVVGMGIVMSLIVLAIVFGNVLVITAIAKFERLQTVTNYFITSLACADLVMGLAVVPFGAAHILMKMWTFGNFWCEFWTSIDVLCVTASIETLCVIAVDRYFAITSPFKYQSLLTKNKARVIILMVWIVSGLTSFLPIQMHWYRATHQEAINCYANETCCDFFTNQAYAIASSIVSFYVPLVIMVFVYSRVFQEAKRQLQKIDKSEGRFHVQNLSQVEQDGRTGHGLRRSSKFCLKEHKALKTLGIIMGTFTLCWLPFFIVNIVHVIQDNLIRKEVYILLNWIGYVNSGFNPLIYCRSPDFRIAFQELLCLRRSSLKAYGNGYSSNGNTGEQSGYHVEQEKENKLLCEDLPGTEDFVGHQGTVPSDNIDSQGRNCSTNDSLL
Active calls of the source: *; u = inconclusive; x = no result given; & = joins results of further samples.

SMILES	HNF4A DNA FP	A1 inh	UCH37 inh	Ecoli growth	Vif TR-FRET	LANA-H2B inh	B2AR ag
Cn1c(=O)oc2cc(S(=O)(=O)N3CCC4(CC3)OCCO4)ccc21	-2.1	0.4	3.5	0.7	-7%	-4.6	-117
COC(=O)C1=CO[C@@H](OC2OC(CO)C(O)C(O)C2O)[C@@H]2C(CO)=CC[C@H]12 (stereo partly drawn)	1.6	1.1	2.7	x	28%	6.3	-3
COc1cccc(/C=N/NC(=O)C(=O)NCc2ccco2)c1O	-3.8	0.4	x	x	-4%	-9.9	4
Cc1n[nH]c(=O)nc1NCCN(C)C	1.0	1.8	4.8	0.72	-2%	-2.8	8
Cc1ccnc(SCC(=O)Nc2cccc(S(=O)(=O)N3CCOCC3)c2)n1	3.0	0.4	2.5	0.73	-3%	-3.4	2
COc1cccc(NC(=O)Cn2c(=O)n(CCC(=O)NC3CCN(Cc4ccccc4)CC3)c(=O)c3ccccc32)c1	0.6	0.7	1.0	0.71	x	3.6	-6
Cn1c(C(=O)c2ccccc2[N+](=O)[O-])nc2ccccc21	1.3	-0.1	8.1	0.72	x	-5.6	2
Cn1ccnc1C(=O)Cc1ccc([N+](=O)[O-])cc1	-2.9	0.7	2.6	0.7	x	0.2	0
CC(=O)c1cc2c(cc1N/C(=N/S(=O)(=O)c1ccccc1)c1ccc(Cl)cc1)OCO2	3.8	0.4	x	x	x	1.8	2
O=C(CO/N=C1\CCCc2nonc21)Nc1ccccc1Cl	-0.6	0.6	x	x	2%	x	6
O=C(O)CC1Oc2ccc(Cl)cc2NC1=O (stereo not drawn)	2.3	0.3	7.1	0.73	2%	1.3	6
CCN(CC(=O)NC1CCS(=O)(=O)C1)c1nc(-c2ccccc2)nc2ccccc12 (stereo not drawn)	-0.6	-0.5	1.6	0.7	u	-0.2	22
CC(C)N1CCC2(CC1)C(C#N)=C(N)NC(S)=C2C#N	x	0.3	x	x	>100µM*	9.1	x
Nc1c([N+](=O)[O-])cnnc1-c1ccccc1	2.0	1.2	7.3	0.65	3%	x	0
CCCOc1cccc(C(=O)NCCCNC(=O)c2cccnc2)c1	0.0	0.3	-0.7	0.65	2%	-7.1	-10
COC1=C/C(=C/c2c(N)n3cc(C)sc3nc2=O)C=CC1=O	66*	1.4	13	0.68	9%	-2.2	-12
O=C(O)c1ccc(Nc2nc(-c3ccccc3)cs2)cc1	3.2	-5.7	4.5	0.69	-1%	-0.6	5
COc1ccccc1CNc1ccc(CNc2ncn[nH]2)cc1	2.4	2.1	1.9	0.71	5%	-1.7	-7
O=C(NC(=S)Nn1cnnc1)c1ccc(F)cc1Cl	-2.4	-0.2	4.5	0.7	x	2.9	1
O=C(Nc1cccc([N+](=O)[O-])c1)Nc1cccs1	0.5	-2.9	2.1	0.56	14%	3.6	-1
Cc1cccc(N(C(=O)c2csnn2)C(C(=O)NCc2ccccc2)c2ccncc2)c1 (stereo not drawn)	2.9	-0.3	4.3	0.67	x	-1.8	0
O=C(c1cccs1)N1CCC(c2ccccc2)C1 (stereo not drawn)	-1.9	-2.8	2.3	0.67	-1%	-4.5	8
COc1ccc(C(=O)N2CCOC2CNC(=O)C(=O)NCc2ccc3c(c2)OCO3)cc1 (stereo not drawn)	0.8	-0.8	1.7	0.51*	-7%	-1.7	2
COc1ccc(-c2nnn(CC(=O)N(CC3CCCO3)C(C(=O)NC(C)(C)C)c3ccco3)n2)cc1OC (stereo not drawn)	-0.7	-0.5	-0.2	0.68	x	-4.8	2
O=C(Nc1ccc2[nH]c(=O)[nH]c2c1)c1ccc([N+](=O)[O-])o1	-1.7	-1.2	5.3	0.64	9%	0.4	-5
SMILES	HNF4A DNA FP	A1 inh	UCH37 inh	Ecoli growth	Vif TR-FRET	LANA-H2B inh	B2AR ag
CC1(C)Cc2c(sc(NC(=O)COc3cccc4ccccc34)c2C#N)C(C)(C)N1	214*	0.4	4.7	0.67	x	-2.8	35
COc1cc(COc2ccc3c(C)c(Cc4ccccc4)c(=O)oc3c2)cc(OC)c1OC	-1.5	0.7	-101	0.71	9%	3.3	-1
CC1CCN(C(=O)CSc2nc(=O)n3ccccc3n2)CC1	0.5	0.5	5.6	0.62	-6%	-5.0	-8
CC(=O)c1ccc(OC(=O)CN2C(=O)c3ccccc3C2=O)cc1	-0.6	0.2	7.6	0.64	-14%	-2.6	2
Cc1cccnc1NC(=O)CSc1nnc(Cc2ccccc2)o1	6.0	0.8	0.0	0.71	-1%	-3.6	4
CCN(CC(=O)NCc1cccs1)S(=O)(=O)c1ccc(F)c(F)c1F	1.3	0.5	0.4	0.62	0%	0.6	3
COc1cc(C(C)=O)ccc1COc1ccc(C(=O)OC(C)C(=O)NC(N)=O)cc1OC (stereo not drawn)	-6.4	1.1	2.0	0.65	x	3.5	1
CC(C)C1COS(=O)(=O)NC1CC(=O)SC(C)(C)C (stereo not drawn)	1.6	u	3.0	0.72	x	-6.3	-2
CC1=C(C(=O)O)N2C(=O)C(NC(=O)c3ccc(F)cc3)C2SC1 (stereo not drawn)	-4.6	-0.9	2.6	0.7	-5%	x	-8
CC1(C(=O)NC2CCCCCCC2)CCC(=O)N1CCN1CCOCC1 (stereo not drawn)	-3.7	-0.1	-1.2	0.68	16%	5.3	6
COc1cc(Cl)ccc1OCc1cc(C(=O)NCCCN2CCCC2=O)no1	-3.6	0.9	-0.8	0.63	x	5.9	1
CCC1CCCCN1Cc1ccc(OC)c(C)c1 (stereo not drawn)	-2.2	0.5	3.8	0.69	0%	-2.5	0
CCC(C)C(Nc1ccc(C(=O)OC)cc1[N+](=O)[O-])C(=O)OC (stereo not drawn)	-1.5	1.4	1.6	0.65	x	-0.9	1
CC(C)CNC(=O)c1cccc(NC(=O)COc2ccc([N+](=O)[O-])cc2)c1	-0.2	-0.6	2.3	0.66	5%	-2.0	-8
CCOc1ccc(S(=O)(=O)N2CCC(C(=O)N3CCCCCC3)CC2)cc1Cl	-0.1	0.6	2.4	0.69	-4%	2.5	-7
COc1cccc2sc(Nc3nc(-c4ccccn4)cs3)nc12	-4.4	-1.9	-4.4	0.68	8%	-5.8	20
CC1(C)CC(C(CC(=O)N2CCCC2)Cc2ccccc2)CCO1 (stereo not drawn)	-1.0	0.4	0.5	0.7	-4%	-19	-3
CCOc1ccc(NC(=S)NC2CC3CCC(C2)N3Cc2ccco2)cc1 (stereo not drawn)	2.7	0.4	4.7	0.65	x	0.1	-2
Brc1ccc(-c2cnco2)cc1	0.7	0.8	-0.2	0.67	u	-0.2	-6
COc1cccc(-c2nn(-c3ccccc3)cc2/C=C(\C#N)C(=O)NCCCn2ccnc2)c1	29	1.3	-0.3	0.63	x	4.0	-14
Cc1cccc(-n2ncc3c(N(CCO)CCO)ncnc32)c1	3.0	-0.2	7.5	0.75	9%	-0.2	6
O=C(O)c1ccc(S(=O)(=O)c2ccc3c(c2)C(=O)N(c2ccc(O)cc2)C3=O)cc1	2.2	u	0.4	0.66	1%	-1.2	2
Cc1nnc2ccc(-c3ccc(NC(=O)c4cccnc4Cl)cc3)nn12	2.2	-0.2	-9.5	0.67	-6%	1.1	-3
Cc1ccc(-c2nc(CS(=O)CC(=O)NCCN(CC(C)C)CC(C)C)c(C)o2)cc1 (stereo not drawn)	4.2	0.4	5.5	0.72	-6%&1%	6.0	-3
Cc1nc(-c2cccs2)ccc1C(=O)O	1.3	-0.6	-3.7	0.72	-5%	-1.3	-3

Limited to HNF4A DNA FP, A1 inh and B2AR ag, for some of the entries so far:
| canonical_smiles | HNF4A DNA FP | A1 inh | B2AR ag |
| --- | --- | --- | --- |
| CC(C)CNC(=O)c1cccc(NC(=O)COc2ccc([N+](=O)[O-])cc2)c1 | -0.2 | -0.6 | -8 |
| CC(C)C1COS(=O)(=O)NC1CC(=O)SC(C)(C)C (stereo not drawn) | 1.6 | u | -2 |

More structures follow:
SMILES	HNF4A DNA FP	A1 inh	UCH37 inh	Ecoli growth	Vif TR-FRET	LANA-H2B inh	B2AR ag
COc1ccc(Cl)cc1NC(=O)CN(C)Cc1cccs1	3.6	-0.4	5.1	0.66	x	3.0	8
CCc1ccc(CNC(=O)C2CCCN(c3nnc(C)c4c(C)n(-c5ccccc5)nc34)C2)cc1 (stereo not drawn)	19	-1.3	-85	0.7	x	-1.4	5
Cn1nnnc1SCCNCc1ccccc1OCc1ccccc1	1.7	-0.6	4.4	0.68	-5%	1.5	-15
Cc1nonc1OCCNCc1c(C(=O)N(C)C)nc2ccc(Cl)cn12	-0.7	-1.1	-0.7	0.71	x	-7.5	-5
O=C(O)CNC1=NCCCCC1	-1.2	-0.4	-0.7	0.66	-1%	-6.4	6
CCOc1cccc(NC(=O)C2CC(=O)NC(=Nc3ccccc3)S2)c1 (stereo not drawn)	0.1	0.4	4.7	0.76	0%	-1.1	3
COC(=O)C(=C/C(C)=C/c1cccnc1)C(=O)OC	2.1	0.8	2.8	0.74	0%	-1.2	-5
COC(=O)c1ccc(CNC(=O)Cn2cnc3c(SC)nc(N)nc32)cc1	-0.3	-0.1	0.6	0.67	6%	-3.3	0
COc1ccc(NC(=O)O/N=C2/CCCc3ccc(OC)cc32)cc1	5.8	0.5	x	x	18%	0.6	17
CC(OC(=O)C1=COCCO1)C(=O)Nc1ccccc1C#N (stereo not drawn)	-0.5	-0.3	1.4	0.69	2%	-3.5	-9
O=C1CCCC(O)=C1N=Nc1c(Cl)cc(C(F)(F)F)cc1Cl	-0.1	0.6	11	0.67	u	2.4	-16
Cc1c(NS(=O)(=O)c2ccc(N(C)C3CCCCC3)c([N+](=O)[O-])c2)c(=O)n(-c2ccccc2)n1C	0.2	1.0	0.4	0.69	x	5.0	-4
Cc1cc(OCC(=O)OCC(=O)NCCN2C(=O)CSC2=O)ccc1Cl	2.2	0.0	4.1	0.71	2%	4.4	-3
Cc1ccc2[nH]c3c(Cl)ncnc3c2c1	-2.8	-1.0	-28	0.63	15%	-2.1	6
Cc1cc(Cl)ccc1OCC(=O)N(Cc1ccco1)c1c(N)n(Cc2ccccc2)c(=O)[nH]c1=O	4.6	x	2.1	0.62	x	x	-2
O=C(O)CC(c1ccc(F)cc1F)N1Cc2ccccc2C1=O (stereo not drawn)	0.9	0.3	3.3	0.66	-10%	1.7	-6
CC1CCN(S(=O)(=O)c2ccc(NC(=O)CCN3C(=O)C4CC=CCC4C3=O)cc2)CC1 (stereo not drawn)	0.9	x	0.5	0.67	-3%	x	6
CC(Oc1ccc(F)cc1)C(=O)Nc1cc(S(=O)(=O)N2CCOCC2)ccc1N1CCN(C)CC1 (stereo not drawn)	-2.0	-0.8	0.8	0.67	-1%	5.5	-10
COc1cccc(CN(C)C(=O)CNC(=O)c2ccc3c(c2)OCO3)c1OC	0.8	0.1	4.2	0.69	x	0.8	8
COc1cccc(NC(=O)C(C)Sc2nnc(C3CC3)n2C2CC2)c1 (stereo not drawn)	4.2	x	0.5	0.66	-3%	x	3
Cc1ccccc1Cn1c2ccccc2c2cnn(CC(=O)NCCCN3CCN(C)CC3)c(=O)c21	0.1	0.9	-7.4	0.66	-1%	1.9	0
CCCOc1ccc(C(CC(=O)O)NC(=O)C23CC4CC(CC(C4)C2)C3)cc1 (stereo not drawn)	2.5	0.2	0.8	0.64	-7%	-2.1	-5
